Env fusion inh = inhibitors of HIV-1 Env-driven cell-cell fusion, primary screen, HeLa-JRFL effector, CEM21 target cells, luciferase. actives 1.1% (n = 360,000). inhibition, % at 12.3 µM;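 active = mean replicate inhibition score of at least 50 and every replicate individually at or above 50; inconclusive = only one of the two criteria met; inactive = mean below 50 and not all replicates reaching 50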;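 note: 0% = plate neutral controls and 100% = maraviroc near 300 nM; one replicate is shown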
Rce1 inhib = yeast Rce1p protease inhibitors, primary screen, biochemical, fluorescence, cell-free homogeneous. actives 0.27% (n = 290,000). yeast membranes, quenched prenylated peptide cleavage fluorescence. CAAX prenyl protease 2 (Saccharomyces cerevisiae (strain ATCC 204508 / S288c)), Q03530. calls only;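 active = fall in fluorescence gain of 50% or more versus controls, with final raw signal at or below 3038400; inconclusive = same 50% fall but final raw signal above 3038400; inactive = fall in fluorescence gain under 50%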;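 note: plate controls were neutral control wells for no effect and wells lacking membranes for full effect; tested at 10 µM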
Target sequence (Q03530 whole entry, looked up): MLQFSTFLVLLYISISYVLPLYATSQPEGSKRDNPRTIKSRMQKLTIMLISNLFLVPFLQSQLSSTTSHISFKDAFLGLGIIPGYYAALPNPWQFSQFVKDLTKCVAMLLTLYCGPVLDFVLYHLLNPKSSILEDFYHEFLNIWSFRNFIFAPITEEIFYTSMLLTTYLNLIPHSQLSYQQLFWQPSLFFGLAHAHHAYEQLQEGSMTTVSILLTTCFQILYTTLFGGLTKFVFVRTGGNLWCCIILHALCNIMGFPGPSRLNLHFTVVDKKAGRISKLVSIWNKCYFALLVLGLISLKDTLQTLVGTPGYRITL
CSC inhib = cancer stem cell viability inhibitors, primary screen, luminescence | cancer stem cell-like cells viability | inhibition, % at 7.5 µM | actives 1.1% (n = 300,000) | AID 2717, 2010;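 active = mean at 75% or more and at least half the replicates too; inconclusive = mean and replicates disagree; tested in HMLE shEcad cells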;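 note: 0% = median of negative and 100% = median of positive control wells; the first replicate is given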
MT1-MMP act inh = blockers of MT1-MMP proenzyme processing, primary screen, HT1080 RFP-PRO-GFP cells, GFP/RFP fluorescence | GFP/RFP ratio change, % at 20 µM | AID 651647, 2012 | GFP/RFP ratio fluorescence, overnight; percent of plate control window, DMSO zero | Matrix metalloproteinase-14 (Homo sapiens), P50281 | actives 0.061% (n = 360,000);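 active = GFP/RFP ratio change of at least 30% with cell ATP level not reduced by more than half and red fluorescence within 50% of control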; note: strong numbers were not always called active
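Assay system: HT1080 RFP-PRO-GFP cells | Dosing: 20 µM single dose, 1% DMSO | Incubation: Cells overnight before dosing, compound overnight, 37 °C, 5% CO2 | Evaluation: GFP/RFP fluorescence ratio | Control set: DMSO-only wells and HT1080 RFP-L50D-GFP cell wells as references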
eIF4H inh = human eIF4H binding inhibitors, primary screen, translation initiation inhibitor project, biochemical, uHTS, fluorescence polarization | actives 0.94% (n = 290,000) | Eukaryotic translation initiation factor 4H (Homo sapiens), Q15056 | inhibition, % at 35 µM | AID 2012, 2009 | eIF4H fluorescence polarization binding assay;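 active = 50% or more with normal probe brightness, or confirmed in later tests; inconclusive = above 50% with abnormal brightness, or retests that disagree; inactive = below 50% or failed in later tests; about a fifth of its hits are not listed in these tables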;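 note: calls also rest on retests at 20 µM and on dose response follow-up; 0% = protein and probe with vehicle and 100% = probe without protein; strong numbers were not always called active; many hits fall short of the cut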
UUG fidelity = modulators of yeast start codon fidelity, primary screen, whole organism, S. cerevisiae, single point, plate reader; S. cerevisiae UUG-firefly luciferase reporter, luminescence/redox ratio; activity score, % at 18.7 µM; actives 0.13% (n = 350,000);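 active = replicate mean at a twofold rise or more, about +100% in these data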;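 note: firefly luciferase made from a UUG start codon reports start codon fidelity; reporter light over untreated wells divided by growth signal over untreated wells; some hits fall short of that in this replicate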
PABP polyA inh = PABP poly(A) RNA binding inhibitors, primary screen, biochemical, fluorescence polarization, uHTS. inhibition, % at 35 µM. actives 1% (n = 290,000). AID 2014, 2009;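 active = 50% or more with normal probe brightness, or confirmed in later tests; inconclusive = above 50% with abnormal brightness, or retests that disagree; inactive = below 50% or failed in later tests; about a fifth of its hits are not listed in these tables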;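 note: calls also rest on retests at 20 µM and on dose response follow-up; controls were probe without protein and protein plus probe with vehicle; some compounds called inactive have numbers as strong as hits; many hits fall short of the cut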
eIF4H inh retest = further read-out of eIF4H inh, marked with its call; inhibition, %; compound at 20 µM; confirmation average;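 mean of two retest wells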
PABP polyA inh retest = recorded beside PABP polyA inh, whose call it bears; inhibition, %; compound at 20 µM; confirmation repeats;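 mean of two retest wells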
MT1-MMP act inh RFP = further read-out of MT1-MMP act inh, marked with its call; RFP signal change, %; measured here: RFP expression control read;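 0 = vehicle wells; hits needed this value within 50% of zero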
Numbers without * were called inactive; i = inactive; ? = inconclusive; nt = no result given.

SMILES | Env fusion inh | Rce1 inhib | CSC inhib | MT1-MMP act inh | MT1-MMP act inh RFP | eIF4H inh | UUG fidelity | PABP polyA inh | others
O=C1OC(c2ccc3c(c2)OCO3)=N/C1=C\c1ccc(C(=O)O)cc1 | -52.8 | i | -6.7 | 6.6 | 5.9 | 54.9* | -27.7 | -1.0 | eIF4H inh retest=80.6*;PABP polyA inh retest=22.4
CN(C)CCCN(C(=O)c1ccc(C(=O)c2ccccc2)cc1)c1nc2c(F)cccc2s1 | -8.7 | i | 2.1 | 3.6 | 2.6 | -10.8 | -17.6 | 3.8
CN(C)CCNS(=O)(=O)c1ccc(N2CCN(c3ccc(F)cc3)CC2)c([N+](=O)[O-])c1 | 6.6 | i | 12.0 | 6.4 | -4.2 | -0.2 | nt | 21.0
O=C(NCC(c1ccco1)N1CCN(c2ccc(F)cc2)CC1)C(=O)NC1CCCC1 (stereo not given) | 14.9 | i | 24.4 | 7.3 | -6.0 | nt | -14.8 | nt
Cc1ccc(CNC(=O)Cn2ccc3cc(S(=O)(=O)N4CCCC4)ccc32)o1 | -1.4 | i | -11.7 | 2.1 | 3.6 | -7.1 | -11.2 | 6.1
CN(C)S(=O)(=O)c1cc(C(=O)O)c(NC2CCCCC2)cc1Cl | -67.7 | i | -2.0 | -1.8 | -0.2 | 0.4 | -4.4 | -3.3
N#Cc1nnn2c1nc(N)c1c(F)cccc12 | 30.7 | i | -4.8 | 7.0 | 2.8 | nt | nt | nt
CCC(C)(C)C(=O)Nc1ccc(C(N)=O)cc1 | nt | i | -8.5 | 2.5 | 3.7 | -4.8 | -3.5 | -0.3
O=Cc1cccn1-c1c(C(=O)O)cnn1-c1ccccc1 | 2.7 | i | -10.5 | -1.9 | -1.5 | -7.6 | -7.7 | -22.8
CN(Cc1cnccn1)Cc1nc(Cc2cccc(F)c2)no1 | 9.6 | i | -4.0 | 1.6 | 0.0 | 0.3 | -12.8 | -7.3
O=C(c1cc(COc2cccc(C(F)(F)F)c2)on1)N1CCC(c2ccncc2)CC1 | 71.8* | i | 31.3 | 12.6 | -29.7 | -0.2 | -2.4 | -5.8
CCCCOc1ccc(OCCCN2CCOCC2)cc1 | -22.6 | i | 30.9 | 3.2 | 2.1 | -2.7 | -11.3 | 2.0
O=C(COC(=O)Cn1cnc2ccccc2c1=O)Nc1ccc(Cl)c(C(F)(F)F)c1 | -4.8 | i | 4.2 | 0.7 | 1.9 | 0.1 | -1.6 | -1.5
Cc1ccc(C(=O)OCC(=O)c2ccc[nH]2)s1 | 0.6 | i | 0.6 | -2.3 | 3.9 | 9.0 | nt | 1.0
CC(C)C(=O)Nc1cccc(C(=O)Nc2nnc(C(C)C)s2)c1 | nt | i | -1.3 | -1.1 | 0.3 | 1.3 | -14.4 | 0.5
CS(=O)(=O)c1ccc(C(=O)N2CCN(C(=O)c3ccco3)CC2)cc1 | -63.7 | nt | nt | 2.9 | 2.2 | nt | -15.8 | nt
O=C(Nc1ccc(Cl)cn1)c1cccnc1 | nt | i | -5.0 | 4.5 | 6.4 | 1.6 | -16.9 | 3.4
CC(=O)c1cccc(NC(=O)C2C(c3ccccc3)C2(Cl)Cl)c1 (stereo not given) | 14.8 | i | -4.5 | -6.4 | -6.9 | -7.1 | nt | 5.3
O=C(c1cccs1)N1CCN(Cc2cccnc2)CC1 | -6.1 | i | -18.0 | -1.0 | 2.9 | 4.8 | -14.5 | 44.5
CCOc1ccc(C(=O)N[C@H](C(=O)O)C(C)C)cc1 | 4.2 | i | -5.1 | 1.6 | 2.7 | 0.2 | -40.1 | -1.5
COCC1CCN(C(=O)C2CCC(=O)N(CCc3cccc(F)c3)C2)CC1 (stereo not given) | 1.2 | nt | -6.8 | -3.9 | 0.7 | -15.3 | -10.2 | 2.0
COC(=O)c1ccccc1OCc1cccc(C)n1 | -59.1 | i | -2.9 | -4.0 | -8.9 | -9.4 | -19.3 | 2.6
O=C(OCC(=O)N1CCCc2ccccc21)c1cc(S(=O)(=O)N2CCOCC2)ccc1O | nt | nt | -14.0 | 0.0 | 2.8 | nt | -7.4 | nt
COc1ccc(NC(=S)N2CCN(c3ccccn3)CC2)cc1OC | 24.8 | i | -15.6 | 8.7 | 7.9 | 7.9 | nt | -0.8
COc1ccc(NC(=O)c2cc(-c3ccc(F)cc3C)n[nH]2)cc1OC | -21.2 | nt | nt | 4.2 | -0.7 | nt | -23.7 | nt

More compounds follow:
SMILES | Env fusion inh | Rce1 inhib | CSC inhib | MT1-MMP act inh | MT1-MMP act inh RFP | eIF4H inh | UUG fidelity | PABP polyA inh | others
COc1ccc(S(=O)(=O)NC2CCCCCC2)c(OC)c1 | 10.5 | i | -3.7 | -0.2 | -5.3 | -6.2 | 2.0 | 12.4
O=C(OCc1ccccc1Cl)c1cccnc1Cl | -26.9 | i | 5.3 | 8.5 | 1.4 | -4.8 | -6.1 | -5.7
O=C(NCCCN1CCOCC1)c1ccc(Cl)cc1[N+](=O)[O-] | -1.7 | i | 0.7 | 0.9 | 3.5 | -5.3 | nt | -3.4
COc1ccc(NS(=O)(=O)c2cccc(NC(=O)COc3ccc(OC)cc3)c2)cc1 | -7.4 | i | 8.5 | 2.3 | -9.2 | 5.2 | nt | 4.8
Cc1snc(SCc2ccc(Cl)cc2)c1C#N | -4.3 | i | 1.9 | 5.3 | 0.8 | -0.5 | nt | 4.8
CC(=O)Nc1ccc(Oc2ccc([N+](=O)[O-])cc2Cl)cc1 | 21.8 | i | -9.9 | 2.0 | -4.8 | -4.9 | nt | 28.2
CCOC(=O)c1cn(Cc2cccc(C)c2)nn1 | nt | i | -8.4 | 8.9 | 6.3 | -3.6 | nt | 1.9
O=C(Nc1ccc(Cl)c(Cl)c1)N1CCOCC1 | 4.4 | i | 3.8 | -5.0 | -0.6 | -3.0 | -14.5 | -4.6
COC(=O)c1ccc(C(=O)OC)c(NC(=O)CSCc2ccc(Br)cc2)c1 | nt | nt | 4.5 | 3.8 | -3.5 | -4.5 | -12.1 | 5.4
COc1ccc(-c2cc3c(=O)n(CC(=O)Nc4ccc(Cl)cc4)nc(C)n3n2)cc1 | -9.1 | i | -6.6 | 2.0 | 7.4 | 2.3 | -15.1 | -1.0
CC(C)CC(C(=O)NCC1CCCO1)N(C(=O)Cn1nnc(-c2ccc(F)cc2)n1)c1cccc(C(F)(F)F)c1 (stereo not given) | 35.7 | i | 26.9 | -2.9 | -10.5 | 29.5 | -2.9 | -4.5
O=C1NC(=O)/C(=C\c2ccc(Oc3ccc([N+](=O)[O-])cn3)cc2)S1 | -37.8 | i | 33.0 | 3.1 | -8.1 | -1.3 | nt | 6.9
CCNC(=S)NNC(=O)C1CCN(Cc2ccccc2)CC1 | -2.6 | i | 0.3 | -1.3 | -1.5 | 1.5 | -29.7 | -9.8
Cc1ccc(C)c2nc3sc(C(=O)N4CCOCC4)c(N)c3cc12 | -38.0 | i | -6.2 | -58.8 | -13.5 | 3.0 | nt | -4.4
c1cncc(CNc2cccc(-c3nc4ccccc4[nH]3)c2)c1 | -13.3 | i | -2.2 | 0.8 | -9.5 | -3.0 | -26.7 | -6.1
COC(=O)c1c(-c2ccc(OC)cc2)oc2ccc(-c3ccc(OC)nc3)cc12 | 1.9 | ? | 28.0 | 2.6 | -2.4 | -6.8 | -19.8 | -4.9
COC(=O)C1=CN(c2cc(C)cc(C)c2)C=C(C(=O)OC)C1c1cccc(F)c1 | -23.3 | i | -0.6 | -7.0 | -6.0 | -1.9 | -6.3 | -2.6
Cc1ccccc1-n1c(SCC(=O)N2CCCCC2)nc(O)cc1=O | -7.1 | i | -17.2 | -0.7 | 2.3 | 3.3 | -5.2 | 17.1
CN(Cc1ccccc1)C(=O)C1CCCN1S(=O)(=O)c1ccc(Cl)cc1 (stereo not given) | -1.3 | nt | nt | 1.1 | 3.1 | nt | 18.5 | nt
O=C(Nc1nnc(S(=O)(=O)N2CCOCC2)s1)c1ccccc1Cl | -2.7 | i | 14.8 | -1.9 | 3.1 | 1.0 | -11.5 | 3.0
CC1(C)Nc2ccccc2N(CCC(=O)N2CCOCC2)C1=O | nt | i | -9.4 | -4.6 | -1.1 | -0.6 | -1.8 | -1.7
CN1CC(=O)N(CC(=O)Nc2cccc3ccccc23)C1=O | 3.8 | nt | -23.2 | 1.8 | 1.1 | nt | -13.3 | nt
CCN(CC)S(=O)(=O)c1ccc(NC(=S)NC(=O)CC(C)C)cc1 | -10.7 | i | 1.3 | 1.2 | -2.6 | -8.1 | nt | -2.5
Cc1cc(OCC(=O)N2CCN(c3ccccc3)CC2)c2c(C)c(C)c(=O)oc2c1 | 1.7 | i | -8.5 | 5.4 | 2.7 | 4.8 | -10.3 | 3.5
CC(=O)c1cc(C#N)c(Oc2ccc(F)cc2)nc1C | nt | i | 42.7 | 0.9 | 7.3 | 4.8 | -11.6 | -13.0

Other compounds
SMILES | Env fusion inh | Rce1 inhib | CSC inhib | MT1-MMP act inh | MT1-MMP act inh RFP | eIF4H inh | UUG fidelity | PABP polyA inh | others
O=[N+]([O-])c1cccc(-c2ncc3ccccn23)c1 | -23.8 | i | -13.0 | 1.7 | 3.9 | -2.4 | nt | -6.8
Cc1ccc(S(=O)(=O)c2c(C)nn(-c3ccccc3)c2OC(=O)c2ccc(Br)o2)cc1 | -5.4 | nt | -21.0 | 4.2 | 2.3 | -10.3 | nt | -4.5
O=C(C1CCN(Cc2nc(-c3ccc(Cl)cc3)no2)CC1)N1CCOCC1 | -9.7 | i | -8.1 | 3.7 | -8.2 | 10.5 | -6.9 | 6.8
C=CCSc1nc2sc3c(c2c(=O)n1-c1ccccc1)CCN(C)C3 | 19.8 | i | -13.2 | -4.0 | -1.5 | 3.8 | 11.0 | 4.8
CCCCCN(C(=O)CCC(=O)OCC(=O)N(C)c1ccccc1)c1c(N)n(CCCC)c(=O)[nH]c1=O | 15.9 | i | -5.9 | -4.8 | -1.6 | nt | 8.3 | nt
COc1ccccc1N1CCN(S(=O)(=O)CCNC(=O)c2ccco2)CC1 | 6.6 | nt | nt | 3.3 | 0.1 | nt | -17.5 | nt
Cn1c(=O)c(Oc2ccc(Cl)cc2)c(O)c2ccccc21 | 20.3 | i | -5.6 | -3.2 | -0.4 | 2.8 | nt | 2.4
CCCCNC(=O)NCc1cnn(C)c1C | -13.0 | i | -10.0 | 0.6 | 4.8 | -1.2 | nt | -5.9
Cc1ccc(Nc2cc(-n3cccn3)ncn2)c(C)c1 | nt | i | -20.5 | -9.8 | -6.1 | -12.4 | -35.6 | -7.1
CCCCC1CC(/C(C)=N/NC(N)=O)OC1=O (stereo not given) | nt | i | 5.4 | -2.7 | 0.0 | 2.3 | -15.9 | -0.1
COc1ccc(O)c(C(=O)/C=C/c2cc3ccccc3o2)c1 | nt | i | -24.5 | -4.0 | -5.6 | nt | -8.2 | nt
CC(C)C(NS(=O)(=O)c1ccc2c3c(cccc13)C(=O)N2)C(=O)O (stereo not given) | -16.1 | i | -6.5 | -2.4 | 4.7 | 0.2 | -13.4 | 6.0

High-throughput results: PubChem BioAssay, several laboratories

Some of the compounds tested; the hit share may differ from the screen's.
